Source: PubChem
NPYLR7 ag: mosquito NPYLR7 agonism. HEK293T NPYLR7/Galpha15, GCaMP6s calcium fluorescence. activation, % at 10 µM. 270,000 tested, 0.15% active; in the data active = activation above about 40%;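 also: 0% = vehicle and 100% = reference agonist at the receptor; some compounds past the cut are filed as inactive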
NPYLR7 ag max-min: further read-out of NPYLR7 ag, marked with its call; activation, %; measured here: Max-Min RFU normalised activation; some inactives read as strong as hits;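 span of the calcium signal over five minutes; 0% = vehicle and 100% = native peptide agonist; compound fluorescence can raise it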
* = called active by the depositor; & = joins results of further samples.

SMILES	NPYLR7 ag	NPYLR7 ag max-min
Cc1ccccc1NC(=O)C1C(=O)CC(C)(O)C(C(=O)Nc2ccccc2C)C1c1cnn(C)c1C (stereo not drawn)	3	2
CCOC(=O)N1CCN(C(=O)CSc2nc3c(c(=O)n2-c2ccc(OC)cc2)SCC3)CC1	8	7
CCCC(=O)OCC(=O)Nc1cc(OC)c([N+](=O)[O-])cc1C	6	2
COc1ccc(C(C2Sc3nc(C)nn3C2=O)N2CC(C)OC(C)C2)cc1 (stereo not drawn)	2	-1
CC(C)CN1C(=O)/C(=C\c2ccco2)N(C)C1=S	19	25
COc1ccc(C(=O)NC(C)Cc2ccco2)c(O)c1 (stereo not drawn)	2	3
Cc1nc(C(C)NC(=O)N(Cc2ccc(F)cc2)C2CC2)cs1 (stereo not drawn)	1	1
CCCCc1ccc(NC(=O)Cn2cc(OC)c(=O)cc2CSc2ncccn2)cc1	-6	-9
COc1ccc(C=C2SC(=S)N(CCCN(C)C)C2=O)cc1	10	13
c1cc2occc2c(NCC2CCCO2)n1 (stereo not drawn)	21	9
Cc1cc(C)c2nc(C(F)(F)F)nc(NCCCN3CCCC3=O)c2c1	-12	-18
CC(C(=O)N1CCN(S(=O)(=O)N(C)C2CCCCC2)CC1)n1ccnc1 (stereo not drawn)	1	-1

Full records as entered above:
`c1cc2occc2c(NCC2CCCO2)n1` (stereo not drawn) as listed: NPYLR7 ag: 21; NPYLR7 ag max-min: 9
`Cc1ccccc1NC(=O)C1C(=O)CC(C)(O)C(C(=O)Nc2ccccc2C)C1c1cnn(C)c1C` (stereo not drawn) as listed: NPYLR7 ag: 3; NPYLR7 ag max-min: 2

Rewritten as labelled records: entries from further up.
CCOC(=O)N1CCN(C(=O)CSc2nc3c(c(=O)n2-c2ccc(OC)cc2)SCC3)CC1
- NPYLR7 ag: 8
- NPYLR7 ag max-min: 7
c1cc2occc2c(NCC2CCCO2)n1 (stereo not drawn)
- NPYLR7 ag: 21
- NPYLR7 ag max-min: 9
CCCC(=O)OCC(=O)Nc1cc(OC)c([N+](=O)[O-])cc1C
- NPYLR7 ag: 6
- NPYLR7 ag max-min: 2
COc1ccc(C(C2Sc3nc(C)nn3C2=O)N2CC(C)OC(C)C2)cc1 (stereo not drawn)
- NPYLR7 ag: 2
- NPYLR7 ag max-min: -1

(more compounds)
SMILES	NPYLR7 ag	NPYLR7 ag max-min
CCOC(=O)N1CCN(C(=O)c2cc3nc(-c4ccc(C)cc4)cc(C(F)(F)F)n3n2)CC1	-4	-8
COc1ccc(NC(=O)Nc2cccc(-c3csc4nc(C)cc(=O)n34)c2)cc1OC	-2	-2
CC(C)CN(CC(=O)Nc1cc(-c2ccccc2)nn1-c1ccccc1Cl)C(=O)c1ccc(Br)cc1	-2	3
Brc1c(Br)c(Br)c2n[nH]nc2c1Br	4	-37
COc1ccc(NC(=O)c2cc3nc(-c4ccc(F)cc4)cc(C(F)(F)F)n3n2)c(OC)c1	-4	-10
CC(c1ccc(-c2ccc(N3CCCC3)nn2)cc1)N1CCOCC1 (stereo not drawn)	13	7
CN(Cc1cc(F)cc2c1OCOC2)C(=O)Cn1cnc2c(cnn2C)c1=O	3	2
O=C(Oc1ccc(-c2nc3ccc(Br)cn3c2NC2CCCCC2)cc1)c1ccccc1	-13	-12
Cc1ccc(C=NN=C(N)N)s1	1	-3
CC1(Cc2ccc(F)cc2)C(=O)Nc2ccc(-c3ccc4[nH]ccc4c3)cc21 (stereo not drawn)	-1	4
CS(=O)(=O)c1ccc2nc(N(Cc3cccnc3)C(=O)c3ccc4ncsc4c3)sc2c1	-21	-27
CCCc1nn(-c2ccc(C)cc2)c(OC(C)=O)c1-c1ccc(NC(=O)c2cccc(Br)c2)cc1	-1	3
COc1ccc(CN(C(=O)NC2CCCCC2)C(C)C)cc1OS(C)(=O)=O	9	5
CCOC(=O)C/C(C)=N\NC(=O)CN(c1ccc(Br)cc1)S(=O)(=O)c1ccccc1	1	1
O=C(Cc1ccccc1O)N(CC1CC1)CC1CC1	-2	-7
CC(C)C(C)NC(=O)c1ccc2c(c1)S(=O)(=O)Nc1ncnn1-2 (stereo not drawn)	-1	-4
CNC(=O)c1sc(N2CCN(c3ccccc3F)CC2)nc1C	5	1
COc1ccc(-n2nnc3c(N4CCN(C(=O)CC5CCCCC5)CC4)ncnc32)cc1	0	-3
CCN(C)c1ccc(CSc2nnc(CSC)o2)cc1	1	1
CC1CCN(C(=O)C(C)Sc2nc3sccc3c(=O)[nH]2)CC1 (stereo not drawn)	-4	-5
CC(C)Cc1cc(C(=O)N2CC[C@@H](c3ccc(F)cc3)[C@H](O)C2)nc(N)n1	-2	-7
O=C(N=C1N=C2C=CC(Br)=CN2Cc2ccccc21)c1ccccc1C(=O)c1ccccc1	-4	-10
N#CC1C(=N)Oc2ccc3ccccc3c2C1c1ccccc1 (stereo not drawn)	-2	16
CC1(C)NC(=O)N(CCN(CC2CCCCC2)C2CC2)C1=O	0	-4
Cc1cc(-c2nc3ncccc3o2)ccc1NC(=O)C1CC1	2	2
COc1ccc(C2C3CCC=C3C(C#N)C(=N)C2(C#N)C#N)c(OC)c1 (stereo not drawn)	7	4
CCCSc1nc2ccccc2n1CC(=O)O	-1	-2
Cc1ccc(SC2CCN(C(=O)C3CCC(=O)N(CCN4CCOCC4)C3)CC2)cc1 (stereo not drawn)	20	6
CCC1=NOC(CNC(=O)C2(Oc3ccc(Cl)cc3)CCNCC2)C1 (stereo not drawn)	2	2
CC(CNC(=O)c1ccc(=O)n(C)c1)CN(C)C(=O)OC(C)(C)C (stereo not drawn)	4	0
Cc1ccc(S(=O)(=O)C(CNC(=O)Oc2ccccc2)c2ccco2)cc1 (stereo not drawn)	-2	-6
CC(OC(=O)c1ccc(N(C)C)cc1)C(=O)NCCc1ccc(F)cc1 (stereo not drawn)	2	0
C=CCNC(=O)Cn1cc(OC)c(=O)cc1CN1CCN(C(C)=O)CC1	-2	-5
Cc1noc(C)c1S(=O)(=O)N(Cc1ccco1)c1ccccc1F	-5	-7
CC(C)C(C)(CNC(=O)c1cscn1)NC(=O)c1cscn1 (stereo not drawn)	0	35
O=C1Nc2ccccc2CC1CCC(=O)N(Cc1ccc2c(c1)OCO2)C1CCCC1 (stereo not drawn)	10	4
O=C(CN1C(=O)NC2(CCSC2)C1=O)NCCc1cccs1 (stereo not drawn)	-1	1
CSc1nnc(C)c(=O)n1COC(=O)c1ccc(S(=O)(=O)N2CCCC2)cc1	4	1
Cc1cc(C)c2nc(N(CCCn3ccnc3)C(=O)/C=C/c3cccs3)sc2c1	-13	-16
Cc1ccc(N(Cc2ccco2)C(=O)CN2C(=O)COc3ccccc32)cc1	-1	21
N#Cc1cnc(NCCCS(=O)(=O)Cc2ccccc2)c(Cl)c1	11	10
COc1ccc(CCOC(=O)C2CCCCN2C(=O)C(Cc2ccccc2)c2ccccc2)cc1OC (stereo not drawn)	1	-5
O=C1CC(C(=O)N2CCc3ccccc3C2c2ccccc2Cl)CN1Cc1ccccc1 (stereo not drawn)	-6	-1
COc1ccc(NC(=O)c2cc3cccc(OC)c3oc2=O)cc1	-12	-23
Cc1nc2n(n1)C(=O)C(C(c1cccs1)N1CCCCC1)S2 (stereo not drawn)	-9	-9
COC(C)c1cccc(NC(=O)N2CCCC3CCCC32)c1 (stereo not drawn)	1	-1
Cc1nc(N2CCN(C)CC2)nc2c1C(=O)CC(/C=C/c1ccccc1)C2 (stereo not drawn)	22	15
COc1ccc(C(=O)Nc2noc3ncccc23)cc1OC	-3	-4
C=CCCC(O)CN(CCCOC)Cc1cccn1C (stereo not drawn)	-8	2
CC(C)S(=O)c1ccc(C(=O)Nc2cc(Cl)c(=O)n(C)c2)cc1 (stereo not drawn)	11	12
O=C(N=C1N=C2C=CC(Br)=CN2Cc2ccccc21)C12CCC(CC1)C2	-2	5
CC(CCc1ccccc1)Nc1nc(-c2ccc(F)cc2F)nc2ccccc12 (stereo not drawn)	2	-1
COc1ccc2c(c1OC)C(=O)N(c1ccc(I)cc1)C2	2	5
Cc1ccc2[nH]c(=O)cc(C(=O)NCCNc3cccnc3)c2c1	5	4
CCCOc1ccc(Cl)cc1S(=O)(=O)NCc1cccnc1	-8	-9
COc1ccc(C2=N/C(=C\c3coc4ccc(Cl)cc4c3=O)C(=O)O2)cc1OC	-10	-17
CC(C)(C)c1cc(C=NNc2cn[nH]c(=O)c2Br)cc(C(C)(C)C)c1O	8	8
CN(Cc1ccccc1)C1CCCN(C(=O)Cn2cnc3ccccc3c2=O)C1 (stereo not drawn)	6&-1	2&-3
Cc1ccc(-c2[nH]ncc2CN(C)Cc2nc3ccc(F)cc3[nH]2)cc1C	10&-5	5&-7
CCC(Nc1nc(CCN)nc2ccccc12)c1cccs1 (stereo not drawn)	-1	-6

Exported with values under each structure: part of the list above.
Below each compound – NPYLR7 ag	NPYLR7 ag max-min
COC(C)c1cccc(NC(=O)N2CCCC3CCCC32)c1 (stereo not drawn)
→ 1	-1
Cc1nc(N2CCN(C)CC2)nc2c1C(=O)CC(/C=C/c1ccccc1)C2 (stereo not drawn)
→ 22	15
COc1ccc(C(=O)Nc2noc3ncccc23)cc1OC
→ -3	-4
C=CCCC(O)CN(CCCOC)Cc1cccn1C (stereo not drawn)
→ -8	2

(cont.)
SMILES	NPYLR7 ag	NPYLR7 ag max-min
Cc1nnc(SCC2=C(C(=O)O)N3C(=O)C(NC(=O)Cn4cnnn4)C3SC2)s1 (stereo not drawn)	0&1	-3&5
Cn1ccsc1=NC(=O)C1CCCN1C(=O)OC(C)(C)C (stereo not drawn)	-5	-7
CCCCS(=O)(=O)NC(=O)C1(C)CCN1C(=O)Cc1cc(C)cc(C)c1 (stereo not drawn)	0	0
O=C1CN(C(=O)c2cccc(C(F)(F)F)c2)CC(O)CN1Cc1ccccc1 (stereo not drawn)	20	24
CC(=O)CC1(O)C(=O)N(CCCOc2ccccc2)c2ccc(Cl)cc21 (stereo not drawn)	9	14
Cc1cccc(C)c1OCC(=O)Nc1nonc1-c1ccccc1	-1	-4
O=C(c1cccc(-c2ncc[nH]2)c1)N1CC[C@H](CO)[C@@H](O)C1	0	-1
CC(NCC(=O)Nc1cnccn1)c1ccc(-n2cncn2)cc1 (stereo not drawn)	-4	-7
COc1cccc(Cl)c1-c1cc(C)cnc1N	-4	-4
CCOC(O)[C@H]1N[C@@H](c2ccc(C(F)(F)F)cc2)[C@@H]([N+](=O)[O-])[C@@H]1c1ccccc1 (stereo partly drawn)	-5	-6
COC(=O)c1ccc(C(=O)NNc2nc3c(C)c(C)ccc3s2)cc1	3	-1
CCOc1ccccc1NC(=O)N(CC(=O)N(CCc1ccc(OC)c(OC)c1)Cc1ccc(C)s1)C1CC1	-5	-1

Quoted at random: three records from the list, in no set order.
SMILES	NPYLR7 ag	NPYLR7 ag max-min
CCOC(O)[C@H]1N[C@@H](c2ccc(C(F)(F)F)cc2)[C@@H]([N+](=O)[O-])[C@@H]1c1ccccc1 (stereo partly drawn)	-5	-6
Cc1nc2n(n1)C(=O)C(C(c1cccs1)N1CCCCC1)S2 (stereo not drawn)	-9	-9
COC(=O)c1ccc(C(=O)NNc2nc3c(C)c(C)ccc3s2)cc1	3	-1

Further structures follow.
SMILES	NPYLR7 ag	NPYLR7 ag max-min
N#CC(=Cc1c(F)c(F)c(F)c(F)c1F)C(=O)NC1CCCCC1	-1	1
CN1CCN(c2c(F)cc3c(=O)c(C(=O)O)cn4c3c2OCN4C)CC1	26	27
COc1ccc(S(=O)(=O)N2CCCC(C(F)(F)F)C2)cc1 (stereo not drawn)	-1	1
CC(C)N1Cc2cc(S(C)(=O)=O)ccc2N(CCN2CC=C(c3c[nH]c4cc(F)ccc34)CC2)S1(=O)=O	-12	-16
O=C(NC(Cc1ccccc1)c1ccccc1)c1cc(-c2ccccc2F)nn1-c1cccc([N+](=O)[O-])c1 (stereo not drawn)	-4	-3
CCc1cc(N2CCCCC2C)nc(SCc2ccc(C(=O)NCCN3CCOCC3)o2)n1 (stereo not drawn)	3	9
CC(C)n1cc(C(=O)N2CCN(C(=O)c3ccccc3)CC2)c2nn(-c3ccccc3)c(=O)c-2c1	-6	-9
NCc1ccc(S(=O)(=O)O)cc1	4	4

Some of the compounds tested; the hit share may differ from the screen's.
